OX1R antag: OX1R (HCRTR1) antagonists, primary screen, fluorescence, CHO/OX1R cells, Fluo-8 calcium, orexin A. Orexin/Hypocretin receptor type 1 (Homo sapiens), O43613. Fluo-8 calcium fluorescence. inhibition, % at 5 µM. actives 0.43% (n = 330,000). AID 434989, 2010;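 active = inhibition above its plate's threshold, mean inhibition of all tested compounds on the plate plus 3 SD, cut at about 37% in these data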;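 also: 0% = orexin A challenge wells and 100% = SB-334867-A antagonist wells; not every result past the cut was called active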
Target sequence (O43613 whole entry, looked up): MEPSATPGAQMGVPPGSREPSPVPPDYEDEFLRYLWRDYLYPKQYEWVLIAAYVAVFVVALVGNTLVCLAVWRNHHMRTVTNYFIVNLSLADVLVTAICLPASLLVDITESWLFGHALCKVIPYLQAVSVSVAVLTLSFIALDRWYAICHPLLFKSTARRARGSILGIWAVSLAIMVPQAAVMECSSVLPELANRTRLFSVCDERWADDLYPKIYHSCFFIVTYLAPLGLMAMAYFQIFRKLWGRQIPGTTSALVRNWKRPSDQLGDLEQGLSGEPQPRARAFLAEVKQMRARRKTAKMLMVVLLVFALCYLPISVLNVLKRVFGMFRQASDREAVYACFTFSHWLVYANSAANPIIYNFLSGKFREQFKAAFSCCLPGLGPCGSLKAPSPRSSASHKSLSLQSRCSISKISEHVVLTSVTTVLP
Active calls of the source: *.

OX1R antag,Compound
-10,CN(C)S(=O)(=O)N(CC(=O)Nc1ccc(S(=O)(=O)N2CCCC2)cc1)c1ccccc1
-24,Cc1nc(N2C(=O)C(=O)/C(=C(/O)c3ccccc3)C2c2ccco2)sc1C (centres undefined)
-9,O=C(Cn1c(=O)sc2ccccc21)NCc1ccccn1
-28,Cc1sc(NC(=O)c2ccco2)c(CN2CCC(C)CC2)c1C
-10,CC(C)N(CC#CCC1(O)c2ccccc2-c2ccccc21)CCO
-18,O=C(CC(c1ccccc1)c1ccccc1O)NCc1ccco1 (centres undefined)
-11,CCc1ccccc1NC(=O)CCC(=O)c1cccs1
-9,O=C(NCCCCc1ccccc1)C1CC(c2cccc(F)c2)=NO1 (centres undefined)
-28,COc1ccc2[nH]c(=O)c(CN(C(=O)COc3ccccc3)C(C)C)cc2c1
-23,Cc1nnc(SCCn2c(N3CCN(Cc4ccccc4)CC3)nc3c2c(=O)[nH]c(=O)n3C)s1
-18,CC1(C)CC(NC(=O)CC(c2ccccc2)c2ccccc2)CC(C)(C)N1
-1,COc1ccc(N2CCN(C(=S)Nc3ccc(OC)cc3OC)CC2)cc1
-1,COc1cc(CSc2ncn[nH]2)c(OC)cc1CSc1ncn[nH]1
-16,O=C(NCCc1nnc2ccc(N3CCCC3)nn12)c1ccccc1
-15,COc1cccc(N2CCN(c3ccc4nnc(CCC(=O)Nc5cc(C)ccn5)n4n3)CC2)c1
-1,COc1ccc(/C=N/Nc2nc(-c3cccc(S(=O)(=O)N4CCCC4)c3)cs2)c(OC)c1
-32,O=C(CC(=O)N1CCN(c2ccccn2)CC1)Nc1ccc2nc3n(c(=O)c2c1)CCCCC3
-22,CCC(C)Sc1ccc([C@@H]2[C@@H]3C(=O)N(C)C(=O)[C@@H]3[C@]3(C(=O)OC)CCCCN23)cc1 (some centres undefined)
-17,Cc1noc(C)c1CN1C(=O)NC(Cc2ccccc2)(Cc2ccccc2)C1=O
3,CC(=O)N1CCN(Cc2nc3cc(NC(=O)c4ccccc4Cl)ccc3n2C)CC1
-1,O=c1cc(O)n(-c2ccccc2F)c(=S)[nH]1
-21,COc1ccc(Oc2c(C(F)(F)F)oc3cc(OCC(=O)O)ccc3c2=O)cc1
-24,COc1cc(NS(=O)(=O)c2ccc(N/C=C(\C#N)c3nc4ccccc4o3)cc2)nc(OC)n1
-31,CCOC(=O)c1c(NCc2ccc3c(c2)OCO3)c2ccccc2[nH]c1=O
0,Cc1ccccc1NC(=O)c1ccc(C)c(S(=O)(=O)Nc2ccccn2)c1
-5,CS(=O)c1ccc(-n2c(=O)n(Cc3ccccc3)c(=O)c3[nH]cnc32)cc1 (centres undefined)
-22,COC(=O)C1=C(C)N(CC2CC2)C(=O)N[C@H]1c1ccccc1
-28,COc1ccc2oc(=O)cc(CN(C)Cc3ccccc3)c2c1
-32,CCOc1ccc(NC(N)=O)cc1OCC
-16,O=C(CSc1nncn1-c1cccnc1)Nc1cccc(C(F)(F)F)c1
-26,CCOc1ccccc1N1CC(C(=O)N2CCc3ccccc3C2)CC1=O (centres undefined)
-22,Cc1ccc(S(=O)(=O)N2CCC(=O)N(C(COCc3ccc(Cl)cc3)Cc3ccccc3)CC2)cc1 (centres undefined)
-26,CCC(=O)Nc1cccc(-n2nnnc2SCC(=O)N2CCCCC2)c1
-20,COCCn1c(SCC(=O)Nc2ccc3c(c2)CCC3)nc2ccccc2c1=O
-15,Cc1c(NC(=O)c2coc(=O)c(Br)c2)c(=O)n(-c2ccccc2)n1C
0,O=C(O)CCC(=O)Nc1cc(C(F)(F)F)cc(C(F)(F)F)c1
-25,COc1ccc(CCNC(=O)COC(=O)c2cc(OC)c(OC)cc2OC)cc1
-39,CC(SCc1ccccc1)C(=O)Nc1ccccc1-c1ccccc1 (centres undefined)
-9,CCOc1ccc(C(=O)Cc2ccc3oc(C(=O)O)cc3c2)c(O)c1
-10,O=C(NC1CCCCC1)N(C1=NCCCCC1)c1ccc(Br)cc1
-13,CCc1cccc(C)c1NC(=O)CSc1nc(-c2ccccc2F)nc2nc[nH]c12
-12,Cc1ccc(S(=O)(=O)NCC(=O)NCc2ccncc2)cc1
-15,COc1c(Cl)cccc1-c1cn2ccccc2n1
-15,CC1CCN(S(=O)(=O)c2ccc(NC(=O)N3c4ccccc4Sc4ccccc43)cc2)CC1
-25,CCOC(=O)CC(N)c1cccc([N+](=O)[O-])c1 (centres undefined)
-11,O=C(COC(=O)c1ccc(Cl)nc1)NCCC1=CCCCC1
-9,Cc1nn(CC(=O)OCCOc2ccc(Br)cc2)c(C)c1[N+](=O)[O-]
-6,CC1CCN(C(=S)c2cccc(O)c2)CC1
5,COc1cccc(CNC(=O)c2ccc3nc[nH]c3c2)c1
-25,Cc1ccc(N(CC(=O)NC2CCCCC2)C(=O)CNC(=O)c2cccs2)cc1
-10,O=C(N/N=C/c1cccc([N+](=O)[O-])c1)C(=O)N1CCCCCC1
-22,COc1ccc(-c2cc(C(F)(F)F)nc(S(=O)(=O)CCC(=O)N3CCOCC3)n2)cc1
-13,OCCNC(=S)Nc1ccc2nsnc2c1
-19,COCC(C)NC(=O)CSc1nc2nn(-c3ccccc3)c(=O)c-2c2n1CCCCC2 (centres undefined)
-16,COc1cc(OC)nc(-n2ncc(OC)c(Br)c2=O)n1
6,CCn1cc(C(=O)O)c(=O)c2cc(F)c(N3CCN(S(=O)(=O)c4ccc(NC(C)=O)cc4)CC3)cc21
1,COC(=O)C1=C(C)N(CCc2cc(OC)c(OC)c(OC)c2)C(=O)N[C@H]1c1ccccc1
7,COc1ccc(S(=O)(=O)N2CCN(C(=O)c3cc(-c4ccc(C)cc4)n[nH]3)CC2)cc1
-30,Cc1ccc(C(=O)N/C(=C\c2cccs2)C(=O)NCCc2ccccn2)cc1C
1,NS(=O)(=O)c1ccc(NC(=O)CSc2ccccn2)cc1

The list goes on:
OX1R antag,Compound
2,COc1ccc(C)cc1NC(=O)C/C(C)=N/NC(=O)Cc1cccc2ccccc12
-16,COC(=O)c1cc(-c2cccc(OC)c2)n[nH]1
-23,Cc1c([N+](=O)[O-])nnn1-c1cc(Cl)cc(Cl)c1
-14,COc1ccc(OCC(=O)Nc2cccc(C(=O)Nc3ccccc3C(=O)O)c2)cc1
-11,COc1ccc(CCNC(=O)CN2CCN(c3cccc(Cl)c3)CC2)cc1OC
-11,N#CCN1C(=O)C2CCCN2c2ccc(S(=O)(=O)N3CCOCC3)cc21 (centres undefined)
-19,COc1ccc(C(=O)Nc2ccc(S(=O)(=O)N3CCOCC3)cc2)cc1[N+](=O)[O-]
-31,CC(=O)c1ccc(N2CCN(CC(=O)Nc3ccccc3N3CCOCC3)CC2)cc1
-23,COc1ccc(CCCNC(=O)C2CCC(=O)N(Cc3ccccc3F)C2)cc1 (centres undefined)
-22,COc1ccccc1-c1c(C(F)(F)F)oc2cc(OCC(=O)Nc3ccccc3C(F)(F)F)ccc2c1=O
-3,CCCCCC(=O)Nc1cccc(C2=NOC3(C2)C[C@@H](C(N)=O)N(C(=O)c2cc([N+](=O)[O-])cc([N+](=O)[O-])c2C)C3)c1 (some centres undefined)
4,Cc1ccc2c(c1)nnn2C1CCN(CC(=O)NNC(=O)c2ccco2)CC1
-25,CC1CC(C)CN(S(=O)(=O)c2ccc(C(=O)Nc3sccc3C(N)=O)cc2)C1 (centres undefined)
-32,COc1ccc(N2CCN(C3CCCN(Cc4ccc(F)c(F)c4)C3)CC2)cc1 (centres undefined)
-21,CC(C)NC(=O)CC1(C(=O)NCc2ccc(Cl)cc2)CCCC1
-7,Cc1ccc(CNC(=O)c2ccc(N3CCC4(CC3)CC(c3cccc(Br)c3)=NO4)c(NC(=O)c3c(Cl)cccc3Cl)c2)cc1
-14,CCCNC(=O)c1ccccc1NC(=O)c1ccccc1N(C)S(C)(=O)=O
-24,CC(=O)N1CCn2c3ccc(C)cc3c3cccc1c32
-12,Cc1ccc(NC(=O)CSc2nc3ccccc3c3nc(CCc4c(C)n[nH]c4C)nn23)cc1F
-12,Clc1ncccc1OCc1ccccc1
-5,c1cc2c(cc1Oc1nc(N3CCOCC3)nc(N3CCOCC3)n1)OCO2
-14,Cc1cc(/C=C(\C#N)C(=O)NCCc2c[nH]c3ccccc23)c(C)n1C
-29,COCCCNC(=O)CN1C(=O)COc2ccc(S(=O)(=O)N3CC(C)CC(C)C3)cc21 (centres undefined)
-24,Cc1cc(C)n(-c2nc3ccccc3nc2N2CCN(C(=O)c3ccccc3)CC2)n1
-13,CC(OC(=O)CCN=C1NS(=O)(=O)c2ccccc21)C(=O)Nc1ccc(F)c(F)c1F (centres undefined)
-9,O=C(Nc1ccccc1C(=O)N1CCOCC1)C1CCC(=O)N1C1CCCC1 (centres undefined)
-35,COCCN(C(=O)COC(=O)c1ccccc1Oc1ccccc1)c1c(N)n(Cc2ccccc2)c(=O)[nH]c1=O
-7,COc1ccc(NC(=O)c2cccnn2)cc1
-12,O=C(NC1CCCCCC1)c1cc(S(=O)(=O)N2CCC3(CC2)OCCO3)ccc1F
-13,CN(C(=O)C1CCN(S(=O)(=O)c2cccc3nonc23)CC1)C1CCCCC1
-19,COc1ccc(Cl)cc1S(=O)(=O)N1CCC(C(=O)NCCC2=CCCCC2)CC1
0,O=C(C[n+]1ccc(/C=N/O)cc1)N1CCCCC1
-14,N#Cc1c(NC(=O)CSc2ncnc3sccc23)oc(-c2ccco2)c1-c1ccco1
-21,ClCc1nc2ccccc2n1Cc1ccccc1
-30,CCCCn1c(SCC(=O)NC(C)(C)C)nnc1-c1ccco1
-9,Cc1ccc(C(=O)NN(CCC#N)C2=NS(=O)(=O)c3ccccc32)cc1
1,O=C(/C=C/N1CCOCC1)c1coc2ccccc12
-13,CCCCCNC(=O)c1cccnc1SCC(=O)Nc1ccccc1OC
2,O=c1cc(CN2CCN(Cc3ccccc3)CC2)c2cc(O)ccc2o1
8,O=S(=O)(O)c1cccnc1SCc1ccccc1
2,O=C(O)[C@H]1Cc2ccccc2CN1S(=O)(=O)c1ccc(F)cc1
-8,CC1CCCN(C(=O)Cn2c3ccccc3c3nc4n(c(=O)c32)CCS4)C1 (centres undefined)
-14,Cc1ccc(S(=O)(=O)Nc2cc(-c3ccccc3)nn2C)cc1
-26,c1csc(CNc2nc3ccccc3n2CCN2CCOCC2)c1
-10,C1CSC2(N1)C1CC3CC2CC(C1)C31NCCS1 (centres undefined)
-25,Clc1ccc2nc(N3CCCCC3)[nH]c2c1
-10,CCC(C(=O)NCCN1CCOCC1)n1c2ccccc2c2nc(=O)cc(C)n21 (centres undefined)
-10,COc1cccc(OC(=O)CSc2nnc(-c3ccccc3Br)o2)c1

At a glance, 19 of the compounds above:
OX1R antag,Compound
-10,CN(C)S(=O)(=O)N(CC(=O)Nc1ccc(S(=O)(=O)N2CCCC2)cc1)c1ccccc1
-24,Cc1nc(N2C(=O)C(=O)/C(=C(/O)c3ccccc3)C2c2ccco2)sc1C (centres undefined)
-9,O=C(Cn1c(=O)sc2ccccc21)NCc1ccccn1
-28,Cc1sc(NC(=O)c2ccco2)c(CN2CCC(C)CC2)c1C
-10,CC(C)N(CC#CCC1(O)c2ccccc2-c2ccccc21)CCO
-18,O=C(CC(c1ccccc1)c1ccccc1O)NCc1ccco1 (centres undefined)
-11,CCc1ccccc1NC(=O)CCC(=O)c1cccs1
-9,O=C(NCCCCc1ccccc1)C1CC(c2cccc(F)c2)=NO1 (centres undefined)
-28,COc1ccc2[nH]c(=O)c(CN(C(=O)COc3ccccc3)C(C)C)cc2c1
-23,Cc1nnc(SCCn2c(N3CCN(Cc4ccccc4)CC3)nc3c2c(=O)[nH]c(=O)n3C)s1
-18,CC1(C)CC(NC(=O)CC(c2ccccc2)c2ccccc2)CC(C)(C)N1
-1,COc1ccc(N2CCN(C(=S)Nc3ccc(OC)cc3OC)CC2)cc1
-1,COc1cc(CSc2ncn[nH]2)c(OC)cc1CSc1ncn[nH]1
-16,O=C(NCCc1nnc2ccc(N3CCCC3)nn12)c1ccccc1
-15,COc1cccc(N2CCN(c3ccc4nnc(CCC(=O)Nc5cc(C)ccn5)n4n3)CC2)c1
-1,COc1ccc(/C=N/Nc2nc(-c3cccc(S(=O)(=O)N4CCCC4)c3)cs2)c(OC)c1
-32,O=C(CC(=O)N1CCN(c2ccccn2)CC1)Nc1ccc2nc3n(c(=O)c2c1)CCCCC3
-22,CCC(C)Sc1ccc([C@@H]2[C@@H]3C(=O)N(C)C(=O)[C@@H]3[C@]3(C(=O)OC)CCCCN23)cc1 (some centres undefined)
-17,Cc1noc(C)c1CN1C(=O)NC(Cc2ccccc2)(Cc2ccccc2)C1=O

(further entries)
OX1R antag,Compound
-44,CCn1c(=O)c(=O)n(CC)c2cc(S(=O)(=O)N3CCc4ccccc43)ccc21
-12,c1ccc(CNn2nnnc2-c2ccccc2)cc1
-17,COc1ccc(S(=O)(=O)N2CCc3ccccc3C2)cc1C(=O)O
-21,CCOc1cccc(-c2cc(=O)[nH][nH]2)c1
-33,CCNc1nc(Sc2ccc(C)cc2)cc(C(F)(F)F)n1
0,CN1CCc2nc(NC(=O)COc3ccc(C#N)cc3)sc2C1
-10,C/C(=C/C#N)Nc1ccc(C)cc1
-34,COc1cc(/C=N/Nc2nc(C)cc(C)n2)ccc1OC(=O)c1ccco1
-43,CCOC(=O)C1CCCN(C(=O)c2cc(-c3ccncc3)nc3ccccc23)C1 (centres undefined)
-24,COc1ccc(Nc2nc(C)nc3sc4c(c23)CCC4)cc1O
-12,CCc1c(C)nc2ncnn2c1N1CCCC(C(=O)NCc2ccc3c(c2)OCO3)C1 (centres undefined)
-17,CCCc1ccc(OCCNC(=O)C2CCCCC2)cc1
5,Clc1ccc2nc(N3CCCCC3)sc2c1
-13,NNC(=O)COc1ccc(C(F)(F)F)cc1
2,CCCC(=O)Nc1ccc(C)c(O)c1
-11,C/C(N)=C(/C#N)C(=O)COC(=O)CC1CCCC1
-22,Cc1ccc(-c2nnn(CC(=O)N(CC3CCCO3)C(C(=O)NCC3CCCO3)c3ccc(F)cc3)n2)o1 (centres undefined)
-23,NC(=O)CC(NC(=O)Cc1cccc2ccccc12)c1ccc(NC2CCCCCCC2)c([N+](=O)[O-])c1 (centres undefined)
11,O=C(NNC(=O)c1ccc(F)cc1)C(=O)N1CCCCC1

Compound activity (PubChem)

A portion of the library; most or all hits stand in other tables.
